Source: PubChem
A1 inh: inhibitors of the anti-apoptotic protein A1, read as caspase activation | caspase activation, % (concentration not given with the values) | 330,000 compounds, 0.066% hits | AID 2462 | MEF A1-2A-BIM cells, Caspase-Glo 3/7 luminescence, 3 h; percent of clofoctol response, vehicle zero;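 active = over half of replicate activation scores above 10%, or exactly half above 10 with the replicate mean above 10; inconclusive = replicate mean below 10 yet half the replicates above 10; inactive = over half of replicates below 10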;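 also: wells of about 30 µL received 50 nL stock; many hits fall short of the cut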
LANA-H2B inh: blocks KSHV LANA binding to histone H2A/H2B | Q9QR71 | cell-free LANA-H2A/H2B peptide, fluorescence polarization | inhibition, % (concentration not given with the values) | 320,000 compounds, 0.6% hits; in the data active = inhibition mostly above about 10%, no sharp cut-off; inactive = mostly below about 6.7%;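 also: stock transfer was 7.5 nL into about 10 µL; 0% = median of vehicle wells and 100% = median of positive control wells; one replicate is shown; the record names a cut of 25% in any replicate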
Calb FLC: C. albicans growth modulation with fluconazole; growth inhibition, % (no concentration beside the values); 300,000 compounds, 0.57% hits; C. albicans CaCi-2 (fluconazole-resistant clinical isolate) + fluconazole, Alamar Blue growth, 48 h;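 active = most replicates above 75%; inconclusive = exactly half above 75%; inactive = most below 75%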;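 also: all wells also contain fluconazole at 8 µg/ml as a sub-toxic cotreatment; 0% = median of DMSO wells and 100% = median of geldanamycin control wells; wells of about 8 µL received 7.5 nL stock; the first replicate is given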
Vif TR-FRET: inhibitors of Vif binding to APOBEC3G peptide, primary screen, biochemical, TR-FRET, GST-Vif 1-94, biotin-A3G peptide, dose response retest (AID 1117319). TR-FRET GST-Vif / biotin-A3G peptide binding; higher % means a stronger effect; test concentration not given here; strong numbers were not always called active. inhibition, %; hits with a dose series show IC50 in µM. 260,000 compounds, 0.57% hits;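 active = above the screen mean plus three standard deviations and confirmed in dose response; inconclusive = results disagree or hit not tested in dose response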;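 also: Vif residues 1-94 fused to GST binding biotinylated APOBEC3G peptide 110-148; 0% = full assay without inhibitor and 100% = GST in place of GST-Vif; retest series ran down from 100 µM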
Beta apoptosis: blocks beta cell apoptosis; protection from apoptosis, % (test concentration not listed); INS-1E cytokine-induced death, ATP luminescence, 48 h; percent of positive-control rescue, neutral wells zero; 300,000 compounds, 0.8% hits; AID 435005;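 active = all replicates at 75% or more, or half of them and the mean; inconclusive = half reach 75% but not the mean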;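 also: 0% = cytokine-treated negative control wells and 100% = positive control rescue; higher means more ATP so stronger rescue from cytokine killing; wells of about 40 µL received 100 nL stock; the first replicate is given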
RanGTP-Imp inh: disruptors of Ran-importin-beta complex formation – biochemical, FRET, CFP-Ran, YFP-importin-beta, homogeneous, primary screen; cell-free CFP-Ran/YFP-importin-beta FRET ratio; inhibition, % (no concentration beside the values); 300,000 compounds, 1.1% hits;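 active = most replicates above 15%; inconclusive = exactly half above 15%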;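 also: 0% = DMSO wells and 100% = Ran loaded with GDP instead of GTP; wells of about 40 µL received 100 nL stock; the first replicate is given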
AF4-AF9 inh: inhibitors of human MLL-AF4/AF9 interaction; P42568; AlphaScreen, biotin-AF4 peptide binding to FLAG-AF9; inhibition, % at 10 µM; 350,000 compounds, 0.47% hits;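 active = every replicate reaching a set inhibition limit, whatever the replicate mean, cut at about 25% in these data; inconclusive = mean inhibition reaches that limit but some replicates miss it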;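 also: 0% = plate neutral control median and 100% = total signal loss; the record names both 10 and 1 µM as test concentration; the first replicate is given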
Target sequence (P42568 whole entry, looked up): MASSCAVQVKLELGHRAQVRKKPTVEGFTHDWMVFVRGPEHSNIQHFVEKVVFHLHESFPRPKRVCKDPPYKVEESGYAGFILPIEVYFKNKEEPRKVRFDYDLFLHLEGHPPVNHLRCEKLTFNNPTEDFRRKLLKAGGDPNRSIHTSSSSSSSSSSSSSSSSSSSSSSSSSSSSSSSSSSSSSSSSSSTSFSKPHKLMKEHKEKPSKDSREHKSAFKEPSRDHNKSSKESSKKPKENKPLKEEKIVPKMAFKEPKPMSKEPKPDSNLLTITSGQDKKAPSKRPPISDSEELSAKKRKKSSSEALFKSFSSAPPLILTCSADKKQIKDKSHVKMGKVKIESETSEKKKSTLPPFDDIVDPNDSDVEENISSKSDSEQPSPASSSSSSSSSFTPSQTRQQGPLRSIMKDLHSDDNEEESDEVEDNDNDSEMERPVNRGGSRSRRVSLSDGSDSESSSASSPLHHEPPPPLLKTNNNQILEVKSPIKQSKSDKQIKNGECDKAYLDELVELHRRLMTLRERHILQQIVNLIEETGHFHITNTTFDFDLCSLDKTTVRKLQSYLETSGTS
T cruzi inh: blocks replication of Trypanosoma cruzi. inhibition, % (concentration not given with the values). T. cruzi beta-gal in NIH3T3, luminescence, 90 h. 300,000 compounds, 1.4% hits. AID 1885;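 active = mean inhibition across valid replicates above about 55%, limit read from the data; inconclusive = mean below that limit but half or more replicates reach it; inactive = mean below it, under half of replicates reach it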;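 also: signal also drops with host cell toxicity which is not excluded here; 0% = plate median of DMSO wells and 100% = zero luminescence signal; higher percent means less beta-gal luminescence so fewer parasites; stock transfer was 50 nL into about 50 µL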
Numbers without * were called inactive.

Results for Cc1cc(C(=O)NNC(=S)Nc2ccccc2)nn1C ?
A1 inh: -0.7; LANA-H2B inh: 6.3; Calb FLC: 8; Vif TR-FRET: 9%; Beta apoptosis: 3; RanGTP-Imp inh: -0.7; AF4-AF9 inh: -2.4; T cruzi inh: -13

What do the screens show for `O=C(CSCC(=O)OCC(=O)c1ccc(Br)cc1)Nc1cccc2ccccc12`?
A1 inh: 0.2; LANA-H2B inh: -4.7; Calb FLC: 3; Vif TR-FRET: 1%; Beta apoptosis: -4; RanGTP-Imp inh: 0.4; T cruzi inh: -15

How did S=C(NCc1ccc(Cl)cc1)Nc1ccc(Cl)cc1Cl do in these assays?
A1 inh: 0.0; LANA-H2B inh: -4.6; Calb FLC: -25; Vif TR-FRET: -6%; Beta apoptosis: 2; RanGTP-Imp inh: 3.5; AF4-AF9 inh: -2.6; T cruzi inh: 1

Results for Cc1ccc(CN(N=Nc2nonc2N)c2nonc2N)c(C)c1 ?
A1 inh: 0.0; LANA-H2B inh: -5.2; Calb FLC: -3; Vif TR-FRET: -6%; Beta apoptosis: -5; RanGTP-Imp inh: 0.2; T cruzi inh: -6

Results for O=C(CCN1C(=O)/C(=C/c2ccccc2Cl)SC1=S)NCCc1ccc(O)cc1 ?
A1 inh: 1.0; LANA-H2B inh: 1.1; Calb FLC: -1; Beta apoptosis: -14; RanGTP-Imp inh: 7.1; AF4-AF9 inh: 0.6; T cruzi inh: -29

Results for COc1ccc(-c2cn3c(C)c(C(=O)NCc4ccc5c(c4)OCO5)sc3n2)cc1 ?
A1 inh: 0.7; LANA-H2B inh: 4.0; Calb FLC: 3; Beta apoptosis: -11; RanGTP-Imp inh: -0.2; AF4-AF9 inh: -0.7; T cruzi inh: 26

Results for O=C(O)CC/C(=C\c1cc2c(cc1Br)OCO2)c1nc2ccccc2s1 ?
A1 inh: -0.6; LANA-H2B inh: 8.7; Calb FLC: inconclusive; Beta apoptosis: -2; RanGTP-Imp inh: -2.5; AF4-AF9 inh: 0.4; T cruzi inh: 13

How did CC1CCCN(C(=S)Nc2ccc(Nc3ccccc3)cc2)C1 (stereo not drawn) do in these assays?
A1 inh: 0.1; LANA-H2B inh: 3.3; Calb FLC: -13; Vif TR-FRET: 6%; Beta apoptosis: -12; RanGTP-Imp inh: 2.2; AF4-AF9 inh: 4.2; T cruzi inh: 2

What do the screens show for `COc1ccc(OC)c(NC(=S)N2c3ccccc3CC2C)c1` (stereo not drawn)?
A1 inh: -0.7; LANA-H2B inh: 6.3; Calb FLC: -14; Beta apoptosis: -1; RanGTP-Imp inh: 3.3; AF4-AF9 inh: 0.9; T cruzi inh: -20

What do the screens show for `COc1ccc(C(=O)COc2ccc3c(C)cc(=O)oc3c2)cc1`?
A1 inh: 0.0; LANA-H2B inh: -1.4; Calb FLC: 5; Vif TR-FRET: -9%; Beta apoptosis: 4; RanGTP-Imp inh: 1.4; AF4-AF9 inh: 1.5; T cruzi inh: -2

What do the screens show for `Cc1ccccc1C1CC(c2ccc(Br)cc2)Nc2nc(N)nn21` (stereo not drawn)?
A1 inh: -0.2; LANA-H2B inh: 17*; Calb FLC: 2; Vif TR-FRET: 4%; Beta apoptosis: -1; RanGTP-Imp inh: 2.9; AF4-AF9 inh: 4.0; T cruzi inh: 23

Results for CCC(=O)N1CCc2cc(S(=O)(=O)N3CCN(c4ccccc4)CC3)ccc21 ?
A1 inh: -0.1; LANA-H2B inh: -4.6; Calb FLC: 0; Beta apoptosis: -8; RanGTP-Imp inh: -4.6; AF4-AF9 inh: -2.4; T cruzi inh: -11

Results for CNC(=S)N/N=C/c1ccc(-c2ccc(Cl)c([N+](=O)[O-])c2)o1 ?
A1 inh: -0.3; LANA-H2B inh: -4.3; Calb FLC: 85*; Vif TR-FRET: 18%; Beta apoptosis: 3; RanGTP-Imp inh: 6.9; AF4-AF9 inh: 0.3; T cruzi inh: 1

How did CC1CCCN(Cc2nc3c(c(=O)n(C)c(=O)n3C)n2Cc2c(F)cccc2Cl)C1 (stereo not drawn) do in these assays?
A1 inh: 0.5; LANA-H2B inh: 2.0; Calb FLC: 6; Vif TR-FRET: 1%; Beta apoptosis: 4; RanGTP-Imp inh: 0.4; AF4-AF9 inh: -15; T cruzi inh: 23

How did O=C(CC(CC(=O)c1ccc(Cl)cc1)c1ccccc1C(=O)O)c1ccc(Cl)cc1 do in these assays?
A1 inh: -0.1; LANA-H2B inh: 0.4; Calb FLC: -9; RanGTP-Imp inh: 0.2; AF4-AF9 inh: -2.1; T cruzi inh: -9

What do the screens show for `CCOc1c(Br)cc(CNc2ccc(N3CCN(C(C)=O)CC3)cc2)cc1OC`?
A1 inh: -1.1; LANA-H2B inh: 2.9; Calb FLC: -2; Vif TR-FRET: -12%; Beta apoptosis: 4; RanGTP-Imp inh: 2.9; AF4-AF9 inh: 27*; T cruzi inh: -4

Results for Cc1ccccc1NC(=O)c1cccc(OCc2c(C)noc2C)c1 ?
A1 inh: 0.3; LANA-H2B inh: -6.5; Calb FLC: -6; Vif TR-FRET: -2%; Beta apoptosis: -1; RanGTP-Imp inh: 6.2; T cruzi inh: 0

Results for COc1ccc(C2C(C#N)=C(C)NC3=C2C(=O)CC(C)(C)C3)c(OC)c1 (stereo not drawn) ?
A1 inh: 1.8; LANA-H2B inh: 0.1; Calb FLC: -8; Vif TR-FRET: 9%; Beta apoptosis: -4; RanGTP-Imp inh: 1.6; T cruzi inh: -18

Results for Cc1ccc(S(=O)(=O)NCC(=O)Nc2ccc3c(c2)OCO3)cc1 ?
A1 inh: 0.0; LANA-H2B inh: 3.1; Calb FLC: -15; Beta apoptosis: -15; RanGTP-Imp inh: 0.2; AF4-AF9 inh: 0.1; T cruzi inh: -12

How did CCOC(=O)CCc1c(C)c2ccc(OCc3nn[nH]n3)c(C)c2oc1=O do in these assays?
A1 inh: 0.6; LANA-H2B inh: -3.0; Calb FLC: -2; Vif TR-FRET: 22%; Beta apoptosis: -6; RanGTP-Imp inh: -1.8; T cruzi inh: -6

What do the screens show for `O=C(NCc1ccco1)/C(=C/c1ccc(Br)cc1)NC(=O)c1ccco1`?
A1 inh: inconclusive; LANA-H2B inh: -0.4; Calb FLC: 13; Beta apoptosis: -1; RanGTP-Imp inh: 23*; AF4-AF9 inh: -1.9; T cruzi inh: 12

What do the screens show for `Cc1oc2c(CN3CCCC3)c(O)ccc2c(=O)c1-c1ccc(Cl)cc1`?
A1 inh: 0.0; LANA-H2B inh: 0.3; Calb FLC: -15; Vif TR-FRET: 2%; Beta apoptosis: 1; RanGTP-Imp inh: -2.2; AF4-AF9 inh: -3.9; T cruzi inh: -8

How did CCC(Oc1ccccc1)C(=O)N1CCN(c2ccccn2)CC1 (stereo not drawn) do in these assays?
A1 inh: 0.4; LANA-H2B inh: 2.9; Calb FLC: -9; Vif TR-FRET: 2%; Beta apoptosis: 1; RanGTP-Imp inh: 3.2; T cruzi inh: -1

How did NC(=O)c1c(NC(=O)c2cc3ccccc3o2)sc2c1CCC2 do in these assays?
A1 inh: 0.2; LANA-H2B inh: 0.2; Calb FLC: 10; Vif TR-FRET: 8%; Beta apoptosis: -2; RanGTP-Imp inh: inconclusive; T cruzi inh: 29

How did COc1cccc(C(=O)NCc2nnc(SCC(=O)Nc3nccs3)n2-c2ccccc2)c1 do in these assays?
A1 inh: 0.6; LANA-H2B inh: -5.8; Calb FLC: 13; Vif TR-FRET: 10%; Beta apoptosis: -3; RanGTP-Imp inh: 0.3; AF4-AF9 inh: 0.4; T cruzi inh: -13

What do the screens show for `C#CCN1CC(C)/C(=N/O)CC1C` (stereo not drawn)?
A1 inh: 0.4; LANA-H2B inh: -3.4; Calb FLC: 10; Vif TR-FRET: 3%; Beta apoptosis: 0; RanGTP-Imp inh: 2.8; T cruzi inh: -12

How did COc1ccc(C(=O)COC(=O)Cc2c[nH]c3ccccc23)c(OC)c1 do in these assays?
A1 inh: -0.7; LANA-H2B inh: -2.7; Calb FLC: 10; Vif TR-FRET: 1%; Beta apoptosis: 1; RanGTP-Imp inh: 0.0; AF4-AF9 inh: 1.4; T cruzi inh: -3

What do the screens show for `COc1ccccc1/C=C(\C#N)C(=O)Nc1ccc(S(N)(=O)=O)cc1`?
A1 inh: 0.0; LANA-H2B inh: 1.0; Calb FLC: -4; Vif TR-FRET: 4%; Beta apoptosis: -1; RanGTP-Imp inh: 5.5; AF4-AF9 inh: -1.3; T cruzi inh: -18

How did O=S(=O)(Cc1noc(-c2ccccc2Cl)n1)c1ccccn1 do in these assays?
A1 inh: -1.5; LANA-H2B inh: -7.9; Calb FLC: 1; Vif TR-FRET: 28%; Beta apoptosis: -6; RanGTP-Imp inh: -1.2; AF4-AF9 inh: -8.1; T cruzi inh: -14

How did Cc1cc(C)n(-c2ccc(C(=O)OCC(=O)Nc3cc(S(C)(=O)=O)ccc3Cl)cc2)n1 do in these assays?
A1 inh: -1.1; LANA-H2B inh: -4.2; Vif TR-FRET: -12%; Beta apoptosis: -4; AF4-AF9 inh: -0.8

What do the screens show for `Cc1nn(CC(=O)c2ccc(Br)s2)c(C)c1[N+](=O)[O-]`?
A1 inh: 0.9; LANA-H2B inh: -2.2; Calb FLC: -4; Vif TR-FRET: 5%; Beta apoptosis: -6; RanGTP-Imp inh: 3.6; T cruzi inh: -10

Results for COc1cc(C#Cc2c(-c3ccccc3OC)oc3ccccc23)cc(OC)c1 ?
A1 inh: -0.8; LANA-H2B inh: 2.7; Beta apoptosis: 5; AF4-AF9 inh: -8.5

Results for O=C(C1=NN(c2ccccc2)C2C(=O)N(c3ccccc3)C(=O)C12)c1ccccc1 (stereo not drawn) ?
A1 inh: -0.3; LANA-H2B inh: 8.8; Calb FLC: -1; Beta apoptosis: -7; RanGTP-Imp inh: -125; AF4-AF9 inh: -0.7; T cruzi inh: -2

Results for COc1cc(NC(=O)Cc2ccc(S(=O)(=O)N3CCOCC3)s2)c(OC)cc1Cl ?
A1 inh: 0.6; LANA-H2B inh: 3.7; Calb FLC: 4; Vif TR-FRET: -4%; Beta apoptosis: 3; RanGTP-Imp inh: -5.3; AF4-AF9 inh: 2.7; T cruzi inh: 3

Results for O=C(COc1ccc([N+](=O)[O-])cc1Cl)N1CCc2ccccc21 ?
A1 inh: -4.8; LANA-H2B inh: -0.6; Beta apoptosis: 4; AF4-AF9 inh: -0.2

How did COc1ccccc1CNC(=O)CCNS(=O)(=O)c1ccc2c(c1)oc(=O)n2C do in these assays?
A1 inh: 0.9; LANA-H2B inh: -1.5; Calb FLC: -3; Vif TR-FRET: 0%; Beta apoptosis: 1; RanGTP-Imp inh: 0.4; AF4-AF9 inh: -0.8; T cruzi inh: -1

What do the screens show for `O=C(O)/C=C/c1cnn(-c2ccccc2)c1`?
Calb FLC: -6; Vif TR-FRET: 3%; RanGTP-Imp inh: -0.9; AF4-AF9 inh: -0.2; T cruzi inh: -4
